Screens: PubChem, several laboratories
Beta cell apopt: blocks beta cell apoptosis; INS-1E cytokine-induced death, ATP luminescence, 48 h; percent of positive-control rescue, neutral wells zero; protection from apoptosis, % (concentration not given with the values); 0.8% of 300,000 active;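 active = all replicates at 75% or more, or half of them and the mean; inconclusive = half reach 75% but not the mean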;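 note: 0% = cytokine-treated negative control wells and 100% = positive control rescue; higher means more ATP so stronger rescue from cytokine killing; wells of about 40 µL received 100 nL stock; the first replicate is given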
Ecoli rRNA inh: inhibitors of bacterial rRNA selective over humanized ribosomes; GFP signal change (wild-type ribosome), % (no concentration beside the values); 1.6% of 350,000 active; E. coli WT GFP vs humanized-ribosome RFP mutants, fluorescence, 24 h; stronger effect = lower value; DMSO median 0, no signal -100;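 active = significant combined selectivity score with lowered wild-type GFP, culture density cut under 30%, mutant RFP and density less affected; inactive = any of these conditions unmet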; note: one replicate is shown; some compounds called inactive have numbers as strong as hits
LANA-H2A inh: blocks KSHV LANA binding to histone H2A/H2B; cell-free LANA-H2A/H2B peptide, fluorescence polarization; inhibition, % (no concentration beside the values); 0.6% of 320,000 active; Q9QR71; in the data active = inhibition mostly above about 10%, no sharp cut-off; inactive = mostly below about 6.7%;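 note: stock transfer was 7.5 nL into about 10 µL; 0% = median of vehicle wells and 100% = median of positive control wells; one replicate is shown; the record names a cut of 25% in any replicate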
Bfl-1 A1 inh: inhibitors of the anti-apoptotic protein A1, read as caspase activation | caspase activation, % (test concentration not listed) | 0.066% of 330,000 active | AID 2462 | MEF A1-2A-BIM cells, Caspase-Glo 3/7 luminescence, 3 h; percent of clofoctol response, vehicle zero;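 active = over half of replicate activation scores above 10%, or exactly half above 10 with the replicate mean above 10; inconclusive = replicate mean below 10 yet half the replicates above 10; inactive = over half of replicates below 10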;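 note: wells of about 30 µL received 50 nL stock; many hits fall short of the cut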
T cruzi inh: blocks replication of Trypanosoma cruzi; T. cruzi beta-gal in NIH3T3, luminescence, 90 h; inhibition, % (no concentration beside the values); 1.4% of 300,000 active; AID 1885;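 active = mean inhibition across valid replicates above about 55%, limit read from the data; inconclusive = mean below that limit but half or more replicates reach it; inactive = mean below it, under half of replicates reach it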;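 note: signal also drops with host cell toxicity which is not excluded here; 0% = plate median of DMSO wells and 100% = zero luminescence signal; higher percent means less beta-gal luminescence so fewer parasites; stock transfer was 50 nL into about 50 µL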
Calb FLC: C. albicans growth modulation with fluconazole. C. albicans CaCi-2 (fluconazole-resistant clinical isolate) + fluconazole, Alamar Blue growth, 48 h. AID 1979. 0.57% of 300,000 active. growth inhibition, % (no concentration beside the values);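 active = most replicates above 75%; inconclusive = exactly half above 75%; inactive = most below 75%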;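 note: all wells also contain fluconazole at 8 µg/ml as a sub-toxic cotreatment; 0% = median of DMSO wells and 100% = median of geldanamycin control wells; wells of about 8 µL received 7.5 nL stock; the first replicate is given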
ALR H2O2 inh: human ALR oxidase inhibition via reduced H2O2. P55789. purified ALR, DTT oxidation, H2O2 HRP-luminol luminescence. inhibition, % (concentration not given with the values). 3.8% of 290,000 active;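 active = mean and each replicate at 75% or more; inconclusive = only one of the two met; inactive = neither met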;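 note: stock transfer was 7.5 nL into about 7.5 µL; 0% = neutral wells and 100% = wells with inactivated enzyme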
Target sequence (P55789 whole entry, looked up): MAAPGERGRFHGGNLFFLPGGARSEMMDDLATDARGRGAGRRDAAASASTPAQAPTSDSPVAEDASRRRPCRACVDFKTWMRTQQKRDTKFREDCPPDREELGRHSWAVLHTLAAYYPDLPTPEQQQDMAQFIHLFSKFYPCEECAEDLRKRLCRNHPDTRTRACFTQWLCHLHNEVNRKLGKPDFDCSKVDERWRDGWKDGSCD
B2AR ag: human beta-2 adrenergic receptor agonism by FAP; P07550; Am2.2-beta2AR cells, FAP receptor internalization, flow cytometry; reference of the scale not given here; response, % (no concentration beside the values); 0.43% of 340,000 active; AID 504454;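 active = response above a set limit, near 3 SD of response in nonfluorescent compounds, cut at about 42% in these data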;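 note: stock transfer was 100 nL into about 11 µL; a reference agonist was the positive control; negative values mostly stem from fluorescent compounds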
Target sequence (P07550 whole entry, looked up): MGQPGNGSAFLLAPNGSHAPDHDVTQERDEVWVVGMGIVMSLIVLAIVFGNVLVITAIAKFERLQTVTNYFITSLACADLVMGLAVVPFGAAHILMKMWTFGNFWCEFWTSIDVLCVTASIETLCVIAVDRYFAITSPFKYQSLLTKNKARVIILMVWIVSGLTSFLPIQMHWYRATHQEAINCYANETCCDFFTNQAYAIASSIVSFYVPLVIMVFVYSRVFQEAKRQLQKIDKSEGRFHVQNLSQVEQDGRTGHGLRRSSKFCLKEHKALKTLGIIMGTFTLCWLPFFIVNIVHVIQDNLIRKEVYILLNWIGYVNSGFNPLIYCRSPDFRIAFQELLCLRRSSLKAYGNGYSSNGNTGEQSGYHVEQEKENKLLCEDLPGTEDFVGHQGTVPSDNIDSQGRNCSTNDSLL
Ecoli rRNA inh OD600: second read-out of Ecoli rRNA inh, no call of its own (marks repeat the call); OD600 change, %; measured here: OD600 growth;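 optical density of the mix in the first replicate; 0 = DMSO median and -100 = no signal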
Ecoli rRNA inh RFP: recorded beside Ecoli rRNA inh, whose call it bears; RFP signal change, %; measured here: RFP humanized mutant strains;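 first replicate; 0 = DMSO median and -100 = no signal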
* hit, by the source's call; ? = inconclusive; · = no result given.

SMILES	Beta cell apopt	Ecoli rRNA inh	Ecoli rRNA inh OD600	Ecoli rRNA inh RFP	LANA-H2A inh	Bfl-1 A1 inh	T cruzi inh	Calb FLC	ALR H2O2 inh	B2AR ag
CCOC(=O)C1=C(C)Nc2ccccc2N=C1NC(=O)c1cccc(S(=O)(=O)NCc2ccccc2)c1	2	·	·	·	2.2	-0.6	5	-8	-4	2
COCCn1c(C)cc(/C=N/NC(=O)c2cc3ccccc3cc2O)c1C	2	·	·	·	-3.2	-0.9	·	·	19	3
COc1ccc(C(=O)N2CCN(c3nc4ccccc4o3)CC2)cc1OC	-3	-1	3	-2.8	13	-0.3	-23	7	-5	-15
O=C(Cn1c2ccc(F)cc2c2nc3n(c(=O)c21)CCS3)Nc1ccccc1C(F)(F)F	-3	8	1	-2.4	-6.7	-0.6	-10	1	-5	-12
CCCc1nnc(NC(=O)c2cc(OC)cc(OC)c2)s1	-5	·	·	·	-3.6	-2.9	17	13	-26	-2
CCCN1CCN(c2ccc(S(N)(=O)=O)cc2[N+](=O)[O-])CC1	-7	2	3	-6.0	-3.7	-0.4	-4	-5	·	-7
COc1ccc(-n2ncc3c(NCc4ccccn4)ncnc32)cc1	-14	·	·	·	-2.0	-0.1	-11	-8	-3	3
CC(C)(C)c1ccc(OCc2ccc(C(=O)N/N=C/c3ccc([N+](=O)[O-])cc3)o2)cc1	7	·	·	·	-3.6	0.3	22	-4	-6	5
CCOc1ccc(NC(=O)c2cc3n(n2)C(C(F)(F)F)CC(c2ccco2)N3)cc1 (centres undefined)	-1	·	·	·	0.2	0.0	-3	5	-4	1
CN1C(=O)/C(=C\C=C2/CCCN2C)N(C)C1=S	·	22	16	-6.0	5.7	-1.4	1	3	59	0
CCC(=O)Nc1ccccc1C(=O)OCC(=O)c1ccc2ccccc2c1	·	·	·	·	4.1	-0.4	-5	10	-13	-3
COc1ccc(-c2cn[nH]c2-c2ccc(OCc3ccc([N+](=O)[O-])cc3)cc2O)cc1	-2	1	5	-0.3	-1.5	?	21	3	-11	6
CC12CN3CCN(CC(C3)/C1=N\NC(=O)c1ccccc1N)C2	-5	6	-2	-2.2	6.8	-0.9	-6	2	-4	-5
FC(F)(F)c1cccc(NC(=S)NNC(=S)NCc2ccccc2)c1	-2	·	·	·	0.9	-0.3	24	4	4	24
CCC(C(=O)OCC(=O)N1CCN(c2ccc(OC)cc2)CC1)c1ccccc1 (centres undefined)	-2	·	·	·	4.6	1.3	·	·	·	-1
COc1ccccc1CNc1ncnc2cc(OC)c(OC)cc12	4	-25	-36	28	-1.6	1.8	14	-7	-1	5
COc1ccccc1-c1cc(C(=O)NC(C)C)no1	4	-17	-4	-8.3	-4.4	1.0	9	-29	-1	-5
O=C(Nc1ccccc1N1CCOCC1)c1ccccc1[N+](=O)[O-]	-7	·	·	·	-3.5	-0.9	-15	-3	-18	6
Cc1cc(C)cc(NC(=O)C(Sc2ncnc3ccccc23)c2ccccc2)c1 (centres undefined)	-4	15	10	-9.4	2.6	0.2	40	4	-8	2
COc1cc(/C=N/NC2=NCCCCC2)ccc1O	0	6	13	-8.0	-0.2	0.1	-6	-1	95*	-3
O=C(Nc1ccc(N2CCOCC2)c(Cl)c1)c1cccnc1Cl	-2	·	·	·	0.0	0.3	-13	-12	-3	-1
Nc1nc(Cl)nc2ccc(Br)cc12	-1	-6	-8	-4.0	7.8	-0.1	2	-20	-11	-10
CCOc1ccccc1NC(=S)NC1CC2CCC1C2 (centres undefined)	5	3	1	-1.8	0.1	1.4	-1	-35	33	2
O=C(Nc1ccccc1C(=O)NCc1cccnc1)c1ccccc1Cl	2	0	3	-1.7	2.9	1.0	3	-4	18	0
CSCC(=O)N1CCc2ccc(NC(=O)c3ccccc3Cl)cc2C1	0	-14	1	4.8	-3.3	0.2	-6	13	-5	-3
COc1cccc2c(=O)cn[nH]c12	-4	·	·	·	-1.5	0.3	7	-2	·	-1
O=C(Cc1n[nH]c(=O)c2ccccc12)OCC(=O)c1ccccc1Cl	-4	0	2	-1.0	-2.0	1.6	-3	2	0	2
COc1ccc(N2CCN(C(=O)c3ccc4c(=O)n(CCc5ccc(OC)c(OC)c5)c(=O)[nH]c4c3)CC2)cc1	31	-7	1	2.5	1.4	0.2	-8	2	13	-5
Cc1noc(/C=C/N(C)C)c1S(=O)(=O)N(C)CC(=O)N1CCc2ccccc21	3	·	·	·	-2.6	0.6	9	7	2	·
CCOc1ccc(-c2n[nH]c(=S)c3ccccc23)cc1	-1	14	20	3.0	-0.9	-0.1	8	-4	-3	7
CCOC(=O)c1cnc(SCC(=O)N2CCc3ccccc32)nc1N	3	·	·	·	-5.1	-0.1	-14	-3	-4	-6
CCCN(CCC)CCSc1nc(O)c(C(C)C)c(=O)[nH]1	-3	·	·	·	0.8	0.2	-18	-2	5	3
CCOC(=O)c1c(C)[nH]c(C)c1C(=O)COC(=O)c1ccc(OC)cc1	-1	-6	4	3.5	3.1	0.0	24	-3	8	-4
Cc1ccc(-n2nc3cc(C)c(N)cc3n2)cc1	0	·	·	·	6.8	-3.7	·	-12	-7	-2
CCOc1c(C)cc(S(=O)(=O)NCc2cccnc2)c(C)c1C	5	5	-1	2.6	-2.3	0.9	1	2	·	-3
Cc1cccc(N(CC(N)=O)C2SC(=O)NC2=O)c1 (centres undefined)	-2	·	·	·	3.0	-0.6	2	-13	-32	1
CCOc1ccc(NC(=O)COC(=O)c2c(OC)cccc2OC)cc1	-2	·	·	·	2.6	0.9	1	1	-1	-3
CCO[C@H]1OC(C(=O)N2CCOCC2)=C[C@@H](C2CC2)[C@@H]1CCCO	0	6	20	5.3	-1.3	-0.6	-20	-2	·	-2
Cc1cc(S(=O)(=O)N2CCOCC2)ccc1OCC(=O)Nc1ccccc1F	-4	1	6	2.1	8.9	0.1	2	-19	·	12
FC(F)(F)c1ccccc1CNCc1ccncc1	-1	15	4	2.1	-5.6	0.9	2	-3	-7	-1
Cc1cc(SCc2ccc(Cl)cc2Cl)nc(=O)[nH]1	-2	-31*	-19*	2.9*	-1.2	1.0	-6	0	98*	9
O=C(CNC(=O)c1ccc2ccccc2c1)NC1CCCCC1	-2	·	·	·	3.1	-0.1	·	·	6	1
O=C(CN1CCN(C(=O)c2ccco2)CC1)Nc1ccc2c(c1)OCO2	0	·	·	·	3.9	0.2	-10	-3	-4	-8
O=C(CN1CCCC1)NCC(=O)Nc1ccc(F)cc1	-4	9	2	-2.1	2.2	-0.1	3	5	1	4
O=c1[nH]cc(N2CCCCCC2)c(=O)[nH]1	-3	24	1	0.5	2.1	0.5	1	2	-2	-2
CC(=O)N1CC[n+]2c(-c3ccc(Cl)cc3Cl)csc21	-1	·	·	·	6.2	-0.3	?	-25	52	-3
CC(=O)Nc1ccc(NC(=O)CS(=O)(=O)Cc2ccccc2)cc1	-1	3	7	-0.8	3.3	2.1	-7	-7	-2	-2
CCCOc1ccc(C2C(C(=O)OC)=C(C)N=C3SCCC(=O)N32)cc1OCC (centres undefined)	4	·	·	·	-1.3	0.0	4	-2	5	7
c1ccc(SSc2ccccn2)nc1	-2	·	·	·	2.4	0.4	38	18	8	11
O=C(CN(C(=O)c1csnn1)c1ccccc1F)NCc1ccccc1	0	2	6	0.2	-3.1	-0.3	-9	-3	-4	-2
CCC1CCCCN1CCCCOc1cccc(Cl)c1 (centres undefined)	3	9	4	1.3	7.1	?	6	-5	-11	3
CCc1c(C)sc(NC(=O)Cn2nc(C(F)(F)F)c3c2CCCC3)c1C#N	-8	·	·	·	0.3	0.8	-9	-3	-4	2
CC1CCCCC1NC(=O)COc1ccc(C#N)cc1 (centres undefined)	1	-1	-1	-3.2	3.5	1.4	·	·	0	-2
CCCCc1nc2cc(C(=O)N3CCN(c4nc(C)cnc4C)CC3)ccc2o1	-2	-36	-37	-3.4	1.0	1.3	9	2	-3	10
COc1ccccc1Nc1ncnc2nc[nH]c12	-6	·	·	·	0.9	1.2	-6	1	-8	3
COC(=O)C1CCN(Cc2cn(-c3ccccc3)nc2-c2ccc3c(c2)OCO3)CC1	-7	-8	1	2.8	3.0	0.8	5	-26	2	-29
CCC(CC)COC(=O)C1=C(C)NC(=O)NC1c1ccc2c(c1)OCO2 (centres undefined)	6	-1	4	-0.1	2.2	0.9	11	-3	71	-4
Cc1ccc2[nH]c3c(c2c1)CCCC3C(N)=O (centres undefined)	-2	·	·	·	-6.5	0.1	3	0	4	13
COC(=O)c1ccc(COc2ccc(C(C)(C)C)cc2)o1	-9	2	-7	-3.9	1.9	0.1	-20	-8	2	-6
CCOc1ccccc1NC(=O)c1cc(-c2ccccn2)nc2ccccc12	1	7	16	-5.0	1.2	0.4	·	·	·	-7

More entries follow:
SMILES	Beta cell apopt	Ecoli rRNA inh	Ecoli rRNA inh OD600	Ecoli rRNA inh RFP	LANA-H2A inh	Bfl-1 A1 inh	T cruzi inh	Calb FLC	ALR H2O2 inh	B2AR ag
CCCCC(=O)Nc1cccc(NC(=O)c2cccnc2Cl)c1	·	-4	3	-0.5	-8.4	-1.1	-5	0	-6	-1
Cc1ccc(NC(=O)CN(C)C(=O)CSc2nnc(N)s2)cc1	0	25	12	1.1	11	-0.2	·	·	-3	-8
O=C(CSc1nnc(-c2cccc(F)c2)o1)N1CCCC1	0	3	1	2.4	2.4	-0.4	-6	-4	·	-7
COc1ccc(-c2noc(CCC(=O)NCCCN3CCC(C)CC3)n2)cc1	-2	·	·	·	1.7	0.5	1	6	-5	0
CCCCN1C(=O)c2ccc(C(=O)OCC(=O)N3CCN(c4ccccc4)CC3)cc2C1=O	-2	·	·	·	2.7	?	·	·	0	0
Cc1onc(-c2ccccc2)c1C(=O)NCC1CCCO1 (centres undefined)	-3	·	·	·	-1.5	0.4	-21	-6	-4	0
COCCCN1C(=O)C(=O)/C(=C(/O)c2ccc(OCC(C)C)cc2C)C1c1cccnc1 (centres undefined)	3	-3	-2	-5.7	0.0	0.6	-6	106*	2	0
CC(C)(C)C1(O)CC(C(F)(F)F)=NN1C(=O)Cc1ccc([N+](=O)[O-])cc1 (centres undefined)	·	4	0	0.7	-1.1	0.0	-18	-5	-11	3
Cc1c(C(=O)O)[nH]c2c1C(=O)CC(c1ccc(Cl)cc1)C2 (centres undefined)	-9	-8	4	-3.6	-13	0.3	-17	-6	-6	-14
CN(CC(=O)Nc1ccc(F)c(Cl)c1)S(=O)(=O)c1cccc2nsnc12	5	·	·	·	4.1	0.2	0	0	-8	-10
CC(C)CNC(=O)c1cccc(NC(=O)CCc2ccccc2)c1	1	-4	-7	-2.1	-0.3	0.2	-14	-16	3	-1
CCn1c(O)c(N=NC(=O)Cc2csc(N3CCOCC3)n2)c2ccccc21	-10	-1	0	0.6	-9.2	0.7	17	13	·	-9
O=S(=O)(Nc1nccs1)c1ccc2c(c1)OCCO2	·	·	·	·	-1.3	0.2	-5	?	-4	-4
Cc1ccccc1OCCC(=O)Nc1ccc(F)c(Cl)c1	0	-35	-46	-5.3	-3.7	0.2	-16	-20	-34	-11
Cc1coc2cc3oc(=O)cc(C)c3cc12	1	·	·	·	-1.4	0.4	10	-16	-1	1

A portion of the library; rates above refer to the full screens.
